From PubChem
A1 inh: caspase 3/7 activation in MEF A1-2A-BIM cells, primary screen, A1 inhibitor project, cell-based, luminescence, HTS; caspase activation, % (concentration not given with the values); 0.066% of 330,000 active; Caspase-Glo 3/7 luminescence, 3 h; percent of clofoctol response, vehicle zero;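 active means over half of replicate activation scores above 10%, or exactly half above 10 with the replicate mean above 10; inconclusive means replicate mean below 10 yet half the replicates above 10; inactive means over half of replicates below 10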;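 further: wells of about 30 µL received 50 nL stock; many hits fall short of the cut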
UCH37 DUB inh: inhibitors of human UCH37 deubiquitinase, primary screen, biochemical, Ub-AMC cleavage, fluorescence. purified proteasome/UCH37. 0.33% of 330,000 active. Ubiquitin carboxyl-terminal hydrolase isozyme L5 (Homo sapiens), Q9Y5K5. inhibition, % (concentration not given with the values);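 active means mean of two replicates above 20%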;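 further: 0% = compound-free wells with enzyme and 100% = wells lacking proteasome; stock transfer was 100 nL into about 20 µL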
Target sequence (Q9Y5K5 whole entry, looked up): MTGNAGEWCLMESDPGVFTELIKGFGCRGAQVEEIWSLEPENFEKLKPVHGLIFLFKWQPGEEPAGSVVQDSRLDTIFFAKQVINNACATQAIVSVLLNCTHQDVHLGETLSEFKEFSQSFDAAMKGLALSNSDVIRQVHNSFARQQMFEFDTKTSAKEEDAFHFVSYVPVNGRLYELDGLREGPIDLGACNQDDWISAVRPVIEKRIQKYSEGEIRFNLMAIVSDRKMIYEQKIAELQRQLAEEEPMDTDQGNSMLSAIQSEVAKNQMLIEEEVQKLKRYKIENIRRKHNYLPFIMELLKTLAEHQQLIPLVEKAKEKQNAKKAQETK
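Signal – fluorescence, ex 355 nm, em 460 nm · System – Proteasome-bound UCH37 · Input – 0.15 nM proteasome as dispensed · Timing – 30 min preincubation with enzyme, 25 min cleavage at room temperature · Read-out basis – percent inhibition of cleavage signal versus uninhibited and no-proteasome wells · Medium – Tris-HCl pH 7.4 with ATP-MgCl2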
HNF4A DNA FP: change in binding of human HNF4A to DNA, primary screen, biochemical, fluorescence polarization, FITC-DNA; 1 h; activity change, % at 10 µM; Hepatocyte nuclear factor 4-alpha (Homo sapiens), P41235; 0.3% of 360,000 active; in the data active means activity change above about 30%, passing the limit was not always enough;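 further: controls were the assay level and a saturating level of protein; the project sought stronger binding though the title names inhibitors; some compounds called inactive have numbers as strong as hits; positive values seem to mean higher polarization but the record does not say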
Target sequence (P41235 whole entry, looked up): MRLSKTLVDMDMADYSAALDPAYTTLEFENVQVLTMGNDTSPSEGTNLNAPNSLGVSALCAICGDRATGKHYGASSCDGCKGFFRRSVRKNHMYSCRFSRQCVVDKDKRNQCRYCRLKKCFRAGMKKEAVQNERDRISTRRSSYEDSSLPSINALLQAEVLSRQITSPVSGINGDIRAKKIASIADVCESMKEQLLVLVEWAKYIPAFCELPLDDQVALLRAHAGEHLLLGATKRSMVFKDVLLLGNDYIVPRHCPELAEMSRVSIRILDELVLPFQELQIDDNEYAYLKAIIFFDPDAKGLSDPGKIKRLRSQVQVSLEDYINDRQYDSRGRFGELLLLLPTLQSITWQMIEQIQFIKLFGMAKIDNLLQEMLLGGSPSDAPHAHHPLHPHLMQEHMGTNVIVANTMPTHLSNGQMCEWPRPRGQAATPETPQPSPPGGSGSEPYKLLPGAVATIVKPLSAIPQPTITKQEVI
Ecoli growth: E. coli growth inhibition, primary screen, OD600; OD600 absorbance (concentration not given with the values); AID 1053175, 2014; Escherichia coli growth, 23 h; hits give low values; 0.21% of 330,000 active;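 active means OD600 absorbance below the run mean of sample wells minus 3.6 SD, in any replicate, cut at about 0.56 in these data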;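 further: stock transfer was 300 nL into about 60 µL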
Vif A3G: inhibitors of Vif binding to APOBEC3G peptide, primary screen, biochemical, TR-FRET, GST-Vif 1-94, biotin-A3G peptide, dose response retest (AID 1117319); Virion infectivity factor (Human immunodeficiency virus type 1 group M subtype B (isolate …; TR-FRET GST-Vif / biotin-A3G peptide binding; higher % means a stronger effect; test concentration not given here; strong numbers were not always called active; one-dose inhibition, %; IC50 in µM for titrated hits; 0.57% of 260,000 active;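 active means above the screen mean plus three standard deviations and confirmed in dose response; inconclusive means results disagree or hit not tested in dose response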;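 further: Vif residues 1-94 fused to GST binding biotinylated APOBEC3G peptide 110-148; 0% = full assay without inhibitor and 100% = GST in place of GST-Vif; retest series ran down from 100 µM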
LANA-H2B inh: blockers of LANA interaction with H2A/H2B – biochemical, FP readout, HTS, primary screen | cell-free LANA-H2A/H2B peptide, fluorescence polarization | inhibition, % (test concentration not listed) | 0.6% of 320,000 active; in the data active means inhibition mostly above about 10%, no sharp cut-off; inactive means mostly below about 6.7%;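 further: stock transfer was 7.5 nL into about 10 µL; 0% = median of vehicle wells and 100% = median of positive control wells; one replicate is shown; the record names a cut of 25% in any replicate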
B2AR ag: beta2AR agonists driving receptor internalization, primary screen, cell-based, FAP fluorogen, flow cytometry; Am2.2-beta2AR cells; reference of the scale not given here; response, % (no concentration beside the values); AID 504454, 2011; 0.43% of 340,000 active; Beta-2 adrenergic receptor (Homo sapiens), P07550;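 active means response above a set limit, near 3 SD of response in nonfluorescent compounds, cut at about 42% in these data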;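 further: stock transfer was 100 nL into about 11 µL; a reference agonist was the positive control; negative values mostly stem from fluorescent compounds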
The depositor's hits bear a star; ? = inconclusive; . = no result given.

SMILES	A1 inh	UCH37 DUB inh	HNF4A DNA FP	Ecoli growth	Vif A3G	LANA-H2B inh	B2AR ag
CCCCCC(=O)N/N=C(\C)c1ccc(NC(=O)c2ccco2)cc1	-0.5	.	-0.6	.	-1%	-3.3	-12
CCOC(=O)Cc1cc(=O)c2c(=O)n(-c3ccccc3)[nH]c2[nH]1	1.3	13	0.3	0.72	?	4.2	-2
CSc1nnc(CCCCCCCCc2nnc(SC)o2)o1	-0.2	3.9	-1.9	0.66	-4%	6.1	11
OCC1(CCc2ccccc2)CCN(Cc2cccn2-c2cccnc2)CC1	0.4	0.4	-1.2	0.61	.	-0.8	3
CCOC(=O)C1CCCN(C(=O)c2csc(-c3ccc4c(c3)CCO4)n2)C1 (stereo not drawn)	0.1	-1.4	1.9	0.71	-6%	4.7	3
O=C(OCC(=O)N1CCc2ccccc2C1)c1ccc(N2CCOCC2)c([N+](=O)[O-])c1	-0.6	0.9	0.1	0.62	.	4.5	2
CN(C)c1cccc(-c2csc(N3CCC(C(N)=O)CC3)n2)c1	-0.4	1.6	4.7	0.68	.	-0.6	-5
Cn1nc(C(F)(F)F)c2cc(NC(=O)OCc3ccc(C(C)(C)C)cc3)sc21	.	.	-3.0	.	1%	.	20
CCOC(=O)N1CCN(C(=O)/C(=C/c2cccs2)NC(=O)c2cccs2)CC1	0.8	11	-1.7	0.71	-4%	5.5	-1
CCCCOC(=O)CSc1nnc(N)s1	-0.1	0.9	3.0	0.71	2%	0.0	8
CCCC(C(=O)NC1CCCC1)N(C(=O)c1snc(C(N)=O)c1N)c1ccc(F)cc1 (stereo not drawn)	.	-47	-0.2	0.65	.	.	-3
NC(=O)c1cc(S(=O)(=O)Nc2cccc(F)c2)co1	-0.5	1.7	0.6	0.73	-5%	-9.5	-9
C=CCc1cccc2cc(C(=O)OCC(=O)c3ccccc3)c(=O)oc12	0.1	-2.2	3.1	0.73	-8%	5.8	-1
CSCCC(NC(=O)c1cccc(C)c1)C(=O)OCN1C(=O)c2ccccc2C1=O (stereo not drawn)	0.6	1.4	0.7	0.67	-1%	5.2	2
Cc1nc2cc(NC(=O)N(C)c3ccc4ccccc4c3)ccc2o1	-0.2	0.8	-1.4	0.66	29%	5.3	0
N#CCCN(C(=O)COC(=O)c1n[nH]c2ccccc12)c1ccccc1	-0.2	2.6	-1.1	0.7	.	-1.2	1
CC(=O)Nc1ccc(N(C(=O)CNC(=O)c2cccs2)C(C(=O)NC(C)(C)C)c2ccccc2)cc1 (stereo not drawn)	0.0	1.0	-1.9	0.69	7%	4.7	-3
Cc1cc(OC(=O)c2ccc(S(=O)(=O)N3CCCC3)cc2)c([N+](=O)[O-])c(=O)[nH]1	0.8	4.8	-1.6	0.68	19%	-0.8	-2
O=C(COC(=O)C1CCN(c2ccc(C(F)(F)F)cn2)CC1)NCc1ccccc1	0.9	0.9	2.4	0.7	?	2.2	3
CC1(C)Cc2ccccc2C(N/N=C/c2ccc(Cl)cc2)=N1	-0.4	.	4.4	.	-2%	1.4	-5
Cc1ccc(NC(=S)N2CCCCCC2)cc1	-1.3	3.0	2.3	0.67	16%	0.5	-1
O=C(CCc1ccccc1)Nc1ccc2ccccc2n1	-3.1	3.2	-1.7	0.71	-6%	-0.6	0
O=C(CC1OC(=O)c2ccccc21)Nc1cc(S(=O)(=O)N2CCOCC2)ccc1OCC(F)(F)F (stereo not drawn)	0.4	-2.3	-1.8	0.66	15%	-0.5	-4
Cc1ccc(C(=O)N2c3ccccc3NC(=O)C2C)cc1 (stereo not drawn)	-1.5	1.3	1.4	0.67	-7%	1.4	1
CCCCN(C)C(=O)c1cn(CC)c2ccc(S(=O)(=O)N(C)C)cc2c1=O	0.5	3.7	6.2	0.78	66%	5.7	-1
COc1ccc(OC)c(NC(=O)NCCN2CCN(c3ccccc3)CC2)c1	0.6	0.3	5.9	0.68	3%	-1.9	3
O=C(CSc1ccccc1C(=O)O)c1ccccc1	-0.5	-1.6	-0.1	0.67	.	-0.5	0
Cc1ccc(S(=O)(=O)N2CCC(C(=O)N[C@@H](C)C(=O)NCc3ccccc3)CC2)cc1	-0.8	2.7	3.7	0.71	-5%	-3.5	0
CCN(CC)S(=O)(=O)c1ccc(C)c(NC(=O)CNCCN(C(C)C)C(C)C)c1	-1.0	0.8	0.4	0.71	20%	4.8	23
COc1ccc(Br)c(C(=O)Nc2ccc(F)cc2)c1	-0.1	1.8	-4.1	0.66	.	2.6	-3
COc1ccccc1CNC(=O)C1(c2ccc(Cl)cc2)CC1	0.8	3.2	0.5	0.67	.	-5.8	2
Cc1cccc(C)c1NC(=O)C1(N(Cc2ccco2)C(=O)CC2NC(=O)NC2=O)CCCCC1 (stereo not drawn)	-0.6	1.5	-0.9	0.73	3%	-0.9	6
CCOc1ccc(NC(=O)CN(C)C(=O)C2CCN(C(=O)Nc3ccccc3)CC2)cc1OCC	.	2.5	-2.1	0.72	.	.	0
CC(=O)c1sc(Nc2cccc3ccccc23)nc1C	-1.6	-1.2	1.0	0.66	.	-4.4	-7
O=C(Nc1ccc(-n2cccn2)cc1)C1CCN(Cc2ccsc2)CC1	1.0	-0.4	0.3	0.7	.	2.1	-19
CCN(c1ccccc1)S(=O)(=O)c1ccc(C(=O)Oc2ccc(C(C)=O)cc2)cc1	0.7	1.9	2.4	0.67	.	-4.2	9
Cc1ccc(Cn2nnc3c(=O)n(Cc4cccc(C)c4)cnc32)cc1	1.1	0.8	-1.1	0.65	2%	5.5	1
O=C(COC(=O)C1(c2ccc(F)cc2)CCCC1)N1CCN(C(=O)c2ccco2)CC1	-0.2	-1.4	-5.3	0.73	2%	-0.8	0
CC(=O)Nc1ccc(NC(=O)C(Sc2ccccc2)c2ccccc2)cc1 (stereo not drawn)	0.5	2.3	-2.4	0.69	-5%	4.3	-3
Cc1ccc(Cn2nnc3c(=O)[nH]c(C4CCCN(S(=O)(=O)c5ccc(F)cc5)C4)nc32)cc1 (stereo not drawn)	0.3	-2.2	-0.7	0.73	-4%	0.8	1
CCCCNC(=O)c1ccc(CNS(=O)(=O)c2ccc(Br)cc2)cc1	1.1	0.6	-2.2	0.7	14%	-7.2	-3
O=C(c1ccc(Oc2ccc([N+](=O)[O-])cc2)cc1)N1CCCCCC1	-0.2	2.5	0.8	0.67	6%	3.5	2
CCNC(=O)NC(=O)C(C)OC(=O)C1CCN(S(=O)(=O)c2ccccc2F)CC1 (stereo not drawn)	0.5	3.4	-3.2	0.72	8%	-0.3	2
CC(C)N1CC(O)=C(c2ccccc2)C1=N	-0.7	3.2	2.4	0.65	2%	1.0	8
Cc1cc(NC(=O)COC(=O)[C@@H](NS(=O)(=O)c2ccccc2)C(C)C)no1	1.0	2.0	-1.0	0.67	0%	-1.2	-1
O=C(Cn1c(=O)c2cccn2c2ccccc21)NCCCN1CCCCC1	-0.4	5.6	-0.1	0.69	-4%	-9.4	-1
O=C(O)CSc1nc2ccccc2[nH]1	0.3	3.4	7.3	0.67	12%	2.4	3
C/C=C(/C)C(=O)Nc1cccc(C2=NOC3(C2)C[C@H](C(N)=O)N(C(=O)c2ccccc2)C3)c1 (stereo partly drawn)	-0.1	1.9	1.8	.	14%	-7.8	1
COc1ccc(S(=O)(=O)N(C)C(C)CCc2ccco2)cc1 (stereo not drawn)	-1.0	5.4	-1.2	0.71	-4%	-3.8	11
CCOC(=O)CSC1=N/C(=C\c2cccnc2)C(=O)N1c1ccc(OC)cc1	-0.6	-71	2.0	0.75	9%	0.2	-2
O=C1CC(N2CCC(c3nc4ccccc4[nH]3)CC2)C(=O)N1Cc1ccccc1 (stereo not drawn)	-0.8	0.7	-2.4	0.7	1%	1.8	1
CCOC(=O)c1c(C)[nH]c(C)c1C(=O)CSc1nnc(-c2ccncc2)n1C	-1.0	1.7	-3.7	0.69	32%	0.6	-4
Cc1cc(F)ccc1S(=O)(=O)Nc1ccccc1C(=O)N1CCCC1	0.0	3.8	-5.8	0.67	0%	-4.9	0
CCO[C@@H]1OC(C(=O)NCc2nc3ccccc3[nH]2)=C[C@H](c2cn(C(C)=O)c3ccccc23)[C@H]1CCCO	0.0	3.4	-3.8	.	.	1.5	5
CCOc1ccc(NCCC#N)cc1	0.0	2.7	-2.1	0.72	-2%	-4.5	7
CC(=O)Oc1c(/C=C(\C#N)C(N)=O)[nH]c2ccccc12	.	18	155	0.68	15%	.	-30
C=CCSc1nc2ccccc2n1S(=O)(=O)c1ccc(Cl)cc1	-1.7	0.6	1.4	0.73	2%	-6.7	7
NC(=S)NCc1cccnc1	0.9	-0.1	-1.0	0.67	0%	-4.6	-10
Cc1occc1C(=O)N1CCN(C(c2ccccc2)c2ccccc2)CC1	-0.4	1.0	0.9	0.72	-2%	-3.0	0
CCCCN1CN(Cc2ccco2)CNC1=S	0.4	-4.5	4.4	0.67	-5%	-1.8	0

Quoted at random: 4 entries already listed.
SMILES	A1 inh	UCH37 DUB inh	HNF4A DNA FP	Ecoli growth	Vif A3G	LANA-H2B inh	B2AR ag
O=C1CC(N2CCC(c3nc4ccccc4[nH]3)CC2)C(=O)N1Cc1ccccc1 (stereo not drawn)	-0.8	0.7	-2.4	0.7	1%	1.8	1
CC(=O)Oc1c(/C=C(\C#N)C(N)=O)[nH]c2ccccc12	.	18	155	0.68	15%	.	-30
Cc1cc(F)ccc1S(=O)(=O)Nc1ccccc1C(=O)N1CCCC1	0.0	3.8	-5.8	0.67	0%	-4.9	0
O=C(Cn1c(=O)c2cccn2c2ccccc21)NCCCN1CCCCC1	-0.4	5.6	-0.1	0.69	-4%	-9.4	-1

Following part.
SMILES	A1 inh	UCH37 DUB inh	HNF4A DNA FP	Ecoli growth	Vif A3G	LANA-H2B inh	B2AR ag
O=C(O)C1NCCc2ccccc21 (stereo not drawn)	0.3	-1.6	0.1	0.7	11%	-6.2	-3
O=C(COc1ccc(-n2cnnn2)cc1)Nc1ccc(F)cc1	-0.4	0.7	-0.8	0.71	.	0.8	0
O=C(CSc1ncnc2ccccc12)Nc1cc(S(=O)(=O)N2CCCCC2)ccc1Cl	-0.6	5.0	0.8	0.71	.	-5.5	-12
CCOC(=O)c1ccc(S(=O)(=O)NNC(=O)c2ccc3c(c2)nc(C)n3CC)cc1	0.3	3.3	1.9	0.67	22%	-0.5	0
COc1ccc(S(=O)(=O)Nc2nc(C(F)(F)F)cs2)cc1	0.4	-2.3	5.2	0.75	1%	0.2	2
CC(C)[C@@H]1NC(=O)N(c2ccc(Oc3ccccc3)cc2)C1=O	-0.4	2.6	2.2	0.72	0%	2.9	-15
COC(=O)CCCC1=CC2=CC(=O)C(C)(OC(=O)c3cccs3)C(=O)C2=CN1c1ccc(OC)cc1 (stereo not drawn)	-0.1	2.7	-1.4	0.65	?	3.0	-9
CCN(CC)c1ccc(C=C2C(=O)OC3(CCCC3)OC2=O)cc1	-0.7	7.5	0.1	0.64	0%	5.2	28
